Compound activity deposited in PubChem BioAssay by Fisher Drug Discovery Resource Center.
NPYLR7 agonist: agonists of mosquito NPYLR7 receptor, primary screen, cell-based, Aedes aegypti, calcium fluorescence, mosquito biting behavior. HEK293T NPYLR7/Galpha15, GCaMP6s calcium fluorescence. activation, % at 10 µM. AID 1259423, 2018. 270,000 tested, 0.15% active. Aedes aegypti neuropeptide Y-like receptor 7 (NPYLR7); in the data active = activation above about 40%;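 also: 0% = vehicle and 100% = reference agonist at the receptor; some compounds past the cut are filed as inactive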
NPYLR7 agonist max-min: further read-out of NPYLR7 agonist, marked with its call; activation, %; measured here: Max-Min RFU normalised activation; some inactives read as strong as hits;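 span of the calcium signal over five minutes; 0% = vehicle and 100% = native peptide agonist; compound fluorescence can raise it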
* = called active by the depositor; & = joins results of further samples. A portion of the library; the hit share may differ from the screen's.

SMILES | NPYLR7 agonist | NPYLR7 agonist max-min
O=C(COc1ccccc1)Oc1ccc(Cl)cc1[N+](=O)[O-] | -6 | -4
CCOc1ccccc1-c1ccc(C(=O)N2CCOCC2)o1 | -2 | -6
CC(=O)OCC(=O)N1CCN(c2ccc(NC(=O)c3ccc(C)cc3)cn2)CC1 | 4 | -1
CCC(=O)N1CCN(c2ncnc3c2nnn3C)CC1 | 0 | 20
CCOc1ccccc1C=CC(=O)c1ccc(S(=O)(=O)NC)cc1 | 0 | -1
O=C(Nc1ccc(N2CCOCC2)c(F)c1)c1cc(C2CC2)[nH]n1 | 5 | 8
N#Cc1c2n(c(=O)n(CC(=O)N(C3CC3)C3CCS(=O)(=O)C3)c1=O)CCC2 (stereo not drawn) | -2 | 5
Cc1ccc(CN2CCN(N=Cc3cc([N+](=O)[O-])ccc3Cl)CC2)c(C)c1 | -3 | -6
Cc1ccc(NC(=O)c2c(O)c3ccccc3[nH]c2=O)c(C(O)c2ccccc2)c1 (stereo not drawn) | 6 | 2
CC(=O)Nc1cc(C)nn1-c1ccc(NC(=O)c2ccoc2C)cc1 | 7 | 4
C=CCn1cc(C(=O)Nc2ccc3c(c2)OCO3)c2nn(-c3ccccc3)c(=O)c-2c1 | 6 | 6
Cc1cccc(NC(=O)CSc2ccnc(=O)[nH]2)c1C | 6 | 5
CC(Cc1cnccn1)NC(=O)c1ccc(OC2CCN(CCc3ccccc3)CC2)cc1 (stereo not drawn) | 1 | -1
COCCCN(Cc1csc(COc2ccccc2C(C)C)n1)C(=O)c1ccc(Cl)cc1 | 0 | 8
CCC(=O)Nc1cc(C(=O)N2CCC(c3ccncc3)CC2)c2c(c1)nc(Cc1ccccc1)n2C | 2 | -4
Cc1nc(CN(C)Cc2cccn2-c2nccs2)no1 | -5 | -8
N#CC(C(=O)OC1CCCCC1)c1nc2ccccc2nc1N1CCCC1 (stereo not drawn) | 4 | -7
O=c1c2nc(N3CCOCC3)sc2c(-c2ccccc2)nn1Cc1cccc(C(F)(F)F)c1 | -3 | -6
O=C(NC1(c2ccccc2)CCC1)c1cccc(-n2[nH]c(=O)ccc2=O)c1 | 11 | 8
COCCCN(CC(=O)N(CCc1ccccc1)Cc1ccc(C)o1)C(=O)Cc1ccccc1 | 0 | 1
CSc1n[nH]c(-n2ccc3c(cnc4c(-c5ccc(F)cc5)c(C)nn43)c2=O)n1 | 3 | 7
CCOc1ccccc1NC(=O)N(CCCOC)CC(=O)N(CCc1ccc(OC)c(OC)c1)Cc1sccc1C | -3 | 8
CCOC(=O)N(C)c1c(CC)nc2ccc(C(=O)N3CCN(C(C)=O)CC3)cn12 | 20 | 14
CCn1cc(C(CC(=O)N2CCN(c3ccc([N+](=O)[O-])cc3)CC2)c2cc(OC)cc(OC)c2)c2ccccc21 (stereo not drawn) | 19 | 18
O=C(CCc1ccco1)N1CCN(Cc2cccc(-c3noc(-c4cccc(Cl)c4)n3)c2)CC1 | 30 | 17
(further entries)
SMILES | NPYLR7 agonist | NPYLR7 agonist max-min
CCOC(=O)Cn1c(=O)c2c(nc3n(-c4cc(C)cc(C)c4)c(C)cn23)n(C)c1=O | -3 | 0
Cc1cccc(-n2nnc3c(=O)n(CC(N)=O)cnc32)c1 | -5 | -8
COCCCNC(=O)c1ccccc1N1CCC(NC(=O)c2ccc(C(F)(F)F)cc2)CC1 | -10 | -7
N#CC1(NC(=O)C2CC2c2cccc(F)c2)CCC2(CC1)OCCO2 (stereo not drawn) | 4 | 0
COc1ccc(N(C)C(=O)c2ccc(-n3cccc3)nc2)cc1OC | -1 | -2
COc1ccc(/C=C/C(=O)NCCc2nncn2C(C)C)c(OC)c1 | -4 | -5
NC(=O)c1c(NC(=O)CSc2nnc(-c3cccs3)o2)sc2c1CCC2 | 1 | 1
Cc1ccc(OCCn2c(C3CC(=O)N(C(C)(C)C)C3)nc3ccccc32)cc1C (stereo not drawn) | 12 | 19
NC(=O)NCCCOC(=O)C1CC1c1cccc(Cl)c1Cl (stereo not drawn) | 4 | 3
CCN(Cc1cc(Br)ccc1O)c1ncncc1Br | -8 | 874
CC(NC(=O)CCCS(N)(=O)=O)C1=CCCCC1 (stereo not drawn) | 7 | 3
FC(F)Oc1ccc(CN2CCOc3ccc(CN4CCC(Oc5cccnc5)CC4)cc3C2)cc1 | 19 | 10
CC(O)C(=O)NC(=O)NC1CCCCC1 (stereo not drawn) | 0 | -1
CC(=O)N1CCc2c(sc(NC(=O)CSc3ccccc3)c2-c2nc3ccccc3s2)C1 | 4 | 2
Cc1cn(Cc2nc(-c3ccccc3C)oc2C)cn1 | 16 | 6
OC(COCc1ccccc1)CN(Cc1cccc(F)c1)CC1CC(c2ccccc2Cl)=NO1 (stereo not drawn) | -5 | 3
CCc1cnc(C)nc1N1CCN(CC(=O)Nc2ccccc2)CC1 | -4 | -8
CC(=O)N1N=C(c2ccccc2)CC1c1ccc2nccnc2c1 (stereo not drawn) | 0 | 7
CC(C)CN(CC(=O)N1CCc2sccc2C1c1ccc(Cl)cc1)C(=O)NC12CC3CC(CC(C3)C1)C2 (stereo not drawn) | 22 | 27
Cc1ccc(/C=C2/C(=N)N3N=C(C(F)(F)F)SC3=NC2=O)cc1 | 0 | -1
COc1ccc(CCn2c(-c3ccccc3I)nc3ccc(Br)cc3c2=O)cc1 | 7 | 3
CN(C)CCCN(C(=O)c1ccco1)c1nc2ccc(Cl)cc2s1 | 0 | -2
CS(=O)(=O)CCNC(=O)C1(N2CCCC2)CCCC1 | 2 | 1
O=C(NC1CCCN(CCc2ccccc2)C1)c1ccccc1N1CCOCC1 (stereo not drawn) | 18 | 9
CCOC(=O)CNC(=O)N1CCCC(C(=O)c2ccc(-c3ccccc3)cc2)C1 (stereo not drawn) | 12 | 3
(more compounds)
SMILES | NPYLR7 agonist | NPYLR7 agonist max-min
NS(=O)(=O)c1ccc(C(=O)N2C[C@H]3CC[C@H]2C3)cc1 | 32 | 23
OCCC1CN(CCCc2ccccc2)CCN1C1CCCCC1 (stereo not drawn) | -1 | -6
O=C(NCc1cccnc1Oc1ccccc1F)c1ccc(CO)o1 | 8 | 9
O=C(Nc1ccc2c(c1)CN(C(=O)Nc1ccc3c(c1)OCO3)CC2)c1ccccc1Cl | -4 | -6
COC1CCC(N(C)S(=O)(=O)c2ccc(C)c(N(C)C)c2)CC1 (stereo not drawn) | -1 | -9
CC1CN(c2ncnc3sc4c(c23)CCCCC4)CC(C)O1 (stereo not drawn) | -10&16 | -16&6
Cc1ccc(CN(CCc2ccccc2)C(=O)CN(C(=O)Cc2ccccc2)C2CC2)o1 | 3 | 9
CCc1c(C)nn(-c2ccc(C(=O)Nc3ccccc3OC)cc2)c1C | -1 | -5
NS(=O)(=O)c1ccc(CCNC(=O)c2cccnc2Nc2cc(Cl)cc(Cl)c2)cc1 | -7 | -8
Cc1nc(C(C)C)cc(N(C)CCc2ccncc2)n1 | -3 | -3
O=C(NCCc1csc2nc(-c3ccc(Cl)cc3)nn12)c1ccccc1 | 4 | 2
COc1ccc(/C=C2\C=C(c3ccccc3)N(c3ccccc3Br)C2=O)cc1 | 7 | 11
CCc1c(C)c(C(=O)NCCc2ccc(OC)c(OC)c2)n(Cc2cccc(C)c2)c1C | -2 | 3
N#Cc1c(N)nc(SCC(=O)c2cc3ccccc3oc2=O)c(C#N)c1-c1ccc(O)cc1 | -3 | -6
CCc1cc(Oc2ccc([N+](=O)[O-])cc2)nc(SCc2ccc(F)c(F)c2)n1 | 1 | 9
CCOC(=O)C1CCN(CC(O)COC23CC4CC(CC(C4)C2)C3)CC1 (stereo not drawn) | -5 | -2
Cc1ccc2c(c1)N(S(=O)(=O)CC1CCCO1)CCC2 (stereo not drawn) | 3 | 0
COc1ccc(C2=CC(c3ccccc3)c3ccccc3O2)cc1OC (stereo not drawn) | 2 | 20
CNC(=O)c1ccc(-c2ccccn2)s1 | 1 | 0
CC1CCc2nc(NC(=O)CSC(=S)N3CCCCC3C)sc2C1 (stereo not drawn) | -4 | -7
CCCCCC1CCC(c2ccc(C(=O)Nc3ccc(O)c4c3C(=O)c3c(NC(=O)c5ccc(C6CCC(CCCCC)CC6)cc5)ccc(O)c3C4=O)cc2)CC1 (stereo not drawn) | -5 | 7
CCOCCCNCC(=O)N(Cc1ccc(F)cc1)Cc1ccco1 | -12 | -4
COC(=O)C1=C(C)NC(=O)NC1c1ccc(-c2ccccc2Cl)s1 (stereo not drawn) | -3 | -3
O=C(Cc1cccs1)Nc1c2c(nn1-c1ccccc1)CSC2 | -4 | -5
Cc1cc(C)n(-c2ccc(F)cc2CN2CCN(Cc3ccc(C)o3)C(CCO)C2)n1 (stereo not drawn) | 3 | -4
The listing continues.
SMILES | NPYLR7 agonist | NPYLR7 agonist max-min
COc1ccc(CCNS(=O)(=O)c2cccc3ccc(C)nc23)cc1 | 4 | 2
COc1ccccc1N1CCN(c2nc(C)c3c(n2)CC(C)CC3=O)CC1 (stereo not drawn) | 2 | -3
COc1cc(-c2cc(C(=O)O)c3[nH]c(-c4ccccc4)nc3n2)cc(OC)c1O | -1 | -2
COc1cccc(CN2CC(C(=O)N3CCN(c4cccc(C)n4)CC3)CCC2=O)c1 (stereo not drawn) | -3 | -3
O=C(NCC1CCCOC1c1ccccc1)c1ccc[nH]c1=O (stereo not drawn) | 15 | 16
CCOC(=O)C1C2C=CC3(CN(C(C)C)C(=O)C13)O2 (stereo not drawn) | 3 | 0
Cc1cc2ccccc2n1CCC(=O)NCCN(C)S(C)(=O)=O | 1 | -5
CCc1noc(C)c1C(=O)Nc1ccc(-n2cnnn2)cc1 | 0 | -2
C=CCCC(=O)Nc1sc(CCC)cc1C(=O)OCC | 2 | -3
CCCCNC(=O)N1CC(C(=O)N2CCN(c3ccccc3F)CC2)CC(c2ccccc2)C1 (stereo not drawn) | 6 | 3
CCc1nc2ccc(C(=O)N3CCN(C)CC3)cn2c1N(C)C(=O)c1cccc(OC)c1 | 12 | 15
CC(C)c1ccc(-n2nnnc2SCC(N)=O)cc1 | 0 | -6
Cc1ccc(Nc2nc(N(C)CCO)nc3c2cnn3-c2ccccc2)cc1 | 3 | 0
Cc1cccn2c(=O)nc(SC(C)c3ccccc3)nc12 (stereo not drawn) | 2 | -2
CCNC(=O)[C@@H]1C[C@@H](N)CN1Cc1cc(C(C)(C)C)ccc1O | 0 | -6
CC(Sc1nnc(-c2c[nH]c3ccccc23)n1C1CC1)C(=O)NC(=O)NC(C)(C)C (stereo not drawn) | -18 | -18
S=c1oc(-c2ccc3c(c2)OCO3)nn1CN1CCN(Cc2ccccc2)CC1 | -2 | -2
Cc1cn2c(nc3c2c(=O)n(Cc2cccc4ccccc24)c(=O)n3C)[nH]1 | 0 | 5
O=C1NC(=NC2CCCC2)SC1=Cc1ccc2c(c1)OCO2 | 9 | 9
COCCCn1cc(C(=O)N2CCN(C(C)=O)CC2)c2nn(-c3ccccc3)c(=O)c-2c1 | 3 | 3
Cc1ncccc1Oc1ccc2c(-c3cccnc3)noc2n1 | -1 | -3
Cc1nc2c(c(=O)[nH]1)CCN(C(=O)C(O)c1cccc(Cl)c1)C2 (stereo not drawn) | 8 | 6
COc1ccc(-c2csc(-n3[nH]c(C)c(N=Nc4ccccc4[N+](=O)[O-])c3=O)n2)cc1 | 15 | 25
Cc1noc(C)c1C(=O)OCC(=O)Nc1ccc(Cl)cn1 | 3 | 0
COc1ccc2ncn(Cc3ccc4c(c3)OCO4)c(=O)c2c1 | -5 | -10

Taken from the results shown, 15 compounds:
SMILES | NPYLR7 agonist | NPYLR7 agonist max-min
COc1ccc(CCNS(=O)(=O)c2cccc3ccc(C)nc23)cc1 | 4 | 2
COc1ccccc1N1CCN(c2nc(C)c3c(n2)CC(C)CC3=O)CC1 (stereo not drawn) | 2 | -3
COc1cc(-c2cc(C(=O)O)c3[nH]c(-c4ccccc4)nc3n2)cc(OC)c1O | -1 | -2
COc1cccc(CN2CC(C(=O)N3CCN(c4cccc(C)n4)CC3)CCC2=O)c1 (stereo not drawn) | -3 | -3
O=C(NCC1CCCOC1c1ccccc1)c1ccc[nH]c1=O (stereo not drawn) | 15 | 16
CCOC(=O)C1C2C=CC3(CN(C(C)C)C(=O)C13)O2 (stereo not drawn) | 3 | 0
Cc1cc2ccccc2n1CCC(=O)NCCN(C)S(C)(=O)=O | 1 | -5
CCc1noc(C)c1C(=O)Nc1ccc(-n2cnnn2)cc1 | 0 | -2
C=CCCC(=O)Nc1sc(CCC)cc1C(=O)OCC | 2 | -3
CCCCNC(=O)N1CC(C(=O)N2CCN(c3ccccc3F)CC2)CC(c2ccccc2)C1 (stereo not drawn) | 6 | 3
CCc1nc2ccc(C(=O)N3CCN(C)CC3)cn2c1N(C)C(=O)c1cccc(OC)c1 | 12 | 15
CC(C)c1ccc(-n2nnnc2SCC(N)=O)cc1 | 0 | -6
Cc1ccc(Nc2nc(N(C)CCO)nc3c2cnn3-c2ccccc2)cc1 | 3 | 0
Cc1cccn2c(=O)nc(SC(C)c3ccccc3)nc12 (stereo not drawn) | 2 | -2
CCNC(=O)[C@@H]1C[C@@H](N)CN1Cc1cc(C(C)(C)C)ccc1O | 0 | -6

(cont.)
SMILES | NPYLR7 agonist | NPYLR7 agonist max-min
O=C(CCc1ccco1)N1CCN(S(=O)(=O)c2cccc(Cl)c2)CC1 | 19 | 7
O=C(N1CCN(C(=O)C23CCC4CC(CC(C4)C2)C3)CC1)C12CCC3CC(CC(C3)C1)C2 | -3 | -12
O=S(=O)(CCCCC(Cl)(Cl)Cl)NCc1ccco1 | 4 | 0
COc1ccc(OC)c(NC(=O)CSc2ccc3nnc(-c4cccnc4)n3n2)c1 | 0 | -1
CCCNC(=O)C1(C)CCN(Cc2ccc3ccccc3c2Br)C1 (stereo not drawn) | 0 | -1
O=C(c1cccnc1)N1N=C(c2ccccc2)CC1(O)C(F)(F)C(F)(F)C(F)(F)F (stereo not drawn) | -13 | -19
Cc1[nH]cnc1-c1nccn1C(C)c1cnn(C)c1 (stereo not drawn) | 3 | 4
CC(C)N1CCCC(C)(C(=O)Nc2nc3ccccc3n2C)C1 (stereo not drawn) | -1 | -3
